HSV replic up: HSV replication enhancement. maximum fold increase. HSV replication augmentation in cells, fold increase. AID 1956. 220,000 tested, 0.005% active;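 active means peak rise of 1.5-fold or more in the series; tested in PC3 cells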;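 further: first round at 10 µM; read as green reporter fluorescence; hits show the peak of a series up to 25 µM; 1 = signal of infected wells without compound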
INS promoter inh: TRM-6 insulin promoter activity inhibition. TRM-6 cells (human fetal islet line), insulin promoter-eGFP reporter, imaging; reporter expression induced with tamoxifen. 130,000 tested, 0.9% active. inhibition, % at 2 µM;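 active means inhibition above the mean plus 3 SD, with well images judged a real hit on visual review, cut at about 60% in these data, passing the limit was not always enough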
PKD1 kinase inh: PKD1 (human) kinase inhibition. PKD1 kinase fluorescence polarization assay. 200,000 tested, 0.056% active. inhibition, %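 (about 10 µM by stock and volumes)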;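 active means inhibition of 50% or more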;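 further: controls were vehicle for no effect and a reference inhibitor for full effect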
GALR2 agonist: GALR2 (human) receptor agonism | 140,000 tested, 0.48% active | GALR2-expressing cells, agonist activation read-out | O43603 | AID 803 | activation, %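 (tested at 5 µM)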;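 active means above mean plus 3 SD of all compounds, about 5% in these data, not always enough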;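 further: 0% = vehicle buffer wells and 100% = reference agonist at full effect; tested in CHO reporter cells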
Target sequence (O43603 whole entry, looked up): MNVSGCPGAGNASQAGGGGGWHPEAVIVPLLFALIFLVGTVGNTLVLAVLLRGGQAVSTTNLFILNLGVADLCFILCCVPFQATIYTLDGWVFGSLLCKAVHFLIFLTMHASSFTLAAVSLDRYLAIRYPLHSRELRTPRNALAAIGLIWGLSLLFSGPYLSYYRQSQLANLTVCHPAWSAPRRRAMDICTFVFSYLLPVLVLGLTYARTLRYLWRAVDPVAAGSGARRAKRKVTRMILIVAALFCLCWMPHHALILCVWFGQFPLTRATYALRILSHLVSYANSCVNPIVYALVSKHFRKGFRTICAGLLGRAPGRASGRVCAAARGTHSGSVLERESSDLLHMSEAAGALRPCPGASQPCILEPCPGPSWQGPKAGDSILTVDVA
RGS16-Gao HTS: RGS16-Galphao interaction regulator (human); 220,000 tested, 0.38% active; bead-based flow cytometry RGS16-Galphao binding, fluorescence; actives lie on both sides; AID 1441; binding response (% of control), % at 10 µM;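 active means below 25% or above 175%, edge rows of some plates excepted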;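 further: Galphao activated by GDP with aluminum fluoride before binding; 100% = wells without compound and 0% = beads without RGS; some results beyond the cut were filed as inactive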
Target sequence (O15492 whole entry, looked up): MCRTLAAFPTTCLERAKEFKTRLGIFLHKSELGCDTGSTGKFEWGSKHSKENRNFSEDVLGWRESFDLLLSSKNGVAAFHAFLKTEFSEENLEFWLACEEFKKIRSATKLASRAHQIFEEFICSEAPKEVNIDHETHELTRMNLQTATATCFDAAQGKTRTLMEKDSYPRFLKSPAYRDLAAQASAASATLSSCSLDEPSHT
Target sequence (P09471 whole entry, looked up): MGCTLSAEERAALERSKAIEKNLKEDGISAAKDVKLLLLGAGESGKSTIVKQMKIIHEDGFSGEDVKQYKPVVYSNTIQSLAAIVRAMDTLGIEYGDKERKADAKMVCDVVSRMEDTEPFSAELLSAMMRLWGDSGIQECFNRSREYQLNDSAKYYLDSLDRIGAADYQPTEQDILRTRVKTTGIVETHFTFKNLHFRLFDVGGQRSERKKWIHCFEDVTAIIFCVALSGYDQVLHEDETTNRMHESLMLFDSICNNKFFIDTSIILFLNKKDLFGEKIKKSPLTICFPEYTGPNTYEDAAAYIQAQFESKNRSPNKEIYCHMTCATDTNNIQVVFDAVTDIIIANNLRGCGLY
INS promoter inh cell count: recorded beside INS promoter inh, whose call it bears; normalized cell count, %; measured here: cell count, toxicity; reference of the scale not given here;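 cells exposed to compound for 48 h; stained nuclei by imaging scaled within each plate; lower means fewer cells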
HSV replic up primary fold: further read-out of HSV replic up, marked with its call; fold increase; compound at 10 µM; measured here: primary screen fold increase 10 uM; tested in PC3 cells;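 GFP signal in the first replicate; 1 = infected wells without compound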
* = called active by the depositor; i = inactive; . = not tested or not shown. Outcome played no part in choosing rows; about 1.1% have a hit in one of these screens.

Sample of the layout, 6 compounds:
SMILES	HSV replic up	HSV replic up primary fold	INS promoter inh	INS promoter inh cell count	PKD1 kinase inh	GALR2 agonist	RGS16-Gao HTS
CNC(=O)C1CC(=O)N(c2ccc(F)c(Cl)c2)C1 (centres undefined)	i	0.99	0	77	-4	-1.3	106
COC(=O)/C(=N\Nc1ccc(Cl)cc1)Sc1nnc(-c2ccc(OC)cc2)n1C	i	1.2	-44	78	-3	-0.7	127
COC(=O)C1=C(C)N(C(C)C)C(=O)C1(NC(=O)C1CCCCC1)C(F)(F)F (centres undefined)	i	0.93	-28	208	1	-0.8	102
O=C(Nn1cc(C(=O)N2CCN(c3ccccc3F)CC2)c2ccccc2c1=O)c1cnccn1	.	.	-53	17	-16	0.0	105
Cc1cccc(C)c1N(CC(=O)N1CCN(c2ccccc2F)CC1)S(C)(=O)=O	i	1	-7	119	9	.	89
COc1cc(OC)cc(C(=O)NCCNC(=O)c2ccccc2)c1	i	0.85	14	83	-9	-1.9	103

Main list (from the top)
SMILES	HSV replic up	HSV replic up primary fold	INS promoter inh	INS promoter inh cell count	PKD1 kinase inh	GALR2 agonist	RGS16-Gao HTS
CNC(=O)C1CC(=O)N(c2ccc(F)c(Cl)c2)C1 (centres undefined)	i	0.99	0	77	-4	-1.3	106
COC(=O)/C(=N\Nc1ccc(Cl)cc1)Sc1nnc(-c2ccc(OC)cc2)n1C	i	1.2	-44	78	-3	-0.7	127
COC(=O)C1=C(C)N(C(C)C)C(=O)C1(NC(=O)C1CCCCC1)C(F)(F)F (centres undefined)	i	0.93	-28	208	1	-0.8	102
O=C(Nn1cc(C(=O)N2CCN(c3ccccc3F)CC2)c2ccccc2c1=O)c1cnccn1	.	.	-53	17	-16	0.0	105
Cc1cccc(C)c1N(CC(=O)N1CCN(c2ccccc2F)CC1)S(C)(=O)=O	i	1	-7	119	9	.	89
COc1cc(OC)cc(C(=O)NCCNC(=O)c2ccccc2)c1	i	0.85	14	83	-9	-1.9	103
C=CCc1ccccc1OCC(O)CN(CC)CC (centres undefined)	i	0.94	-73	95	4	-2.4	121
CCSC1=N/C(=C\c2ccccc2)C(=O)N1c1ccc(OC)cc1	i	0.89	33	111	0	.	102
Cc1ccc(NC(=O)c2ccc(-c3nn(C)c(=O)c4ccccc34)cc2)c(C)c1	i	0.79	-17	107	-6	-2.2	99
CC(=O)Cc1nsc(NC(=O)c2cc(-c3cccc(C(F)(F)F)c3)oc2C)n1	i	0.87	22	111	-1	-0.9	99
CC(C)(C)OC(=O)NCC12C=CC(O1)C1C(=O)N(Cc3ccccc3)C(=O)C12 (centres undefined)	i	1.1	-9	73	-2	-3.3	94
O=C(NCc1ccc(Cl)cc1)C1CCC(CNc2c(N3CCCCC3)c(=O)c2=O)CC1 (centres undefined)	i	0.78	-2	127	4	-1.2	104
CCOC(=O)C1CCN(c2nnc(N3CCCC3=O)s2)CC1	i	0.93	-177	82	-4	-1.1	102
COCCNS(=O)(=O)c1cc(-c2nn(C)c(=O)c3ccccc23)ccc1C	i	1	-109	179	-11	1.6	100
c1ccc(-c2ccc3c(c2)c2c4n3CCN=C4CCC2)cc1	i	0.62	-100	125	-3	-1.7	98
O=C(c1ccccc1)n1ccc(-c2cccs2)n1	i	1.1	.	.	.	.	92
O=c1[nH]c(CN2CCN(CCO)CC2)nc2ccccc12	i	0.98	100*	19*	-2	-2.8	.
CCNC(=O)C1CCCN1S(=O)(=O)c1ccc(OC)cc1 (centres undefined)	i	0.89	29	111	-1	-0.1	102
O=C(CSc1ccc2nnc(-c3ccc(F)cc3)n2n1)NCc1ccco1	i	0.7	44	105	-3	-1.1	98
O=C(Cn1ccc2ccccc2c1=O)NCCC(=O)Nc1cccnc1	i	0.98	.	.	9	-3.1	98
CCN1C(=Nc2ccc(Cl)cc2)SC/C1=C\C(=O)OC	i	1.1	.	.	-7	0.3	102
CC1CCCN(c2ccc(C(=O)NCC3CCCO3)cn2)C1 (centres undefined)	i	1.1	.	.	0	0.2	101
Cc1ccc(-n2c(O)c(C=Nc3ccccc3-c3n[nH]c(=S)[nH]c3=O)c3ccccc3c2=O)c(C)c1	i	0.91	-26	109	-1	.	102
CC(NS(=O)(=O)c1ccc(F)cc1)C(c1cccs1)N1CCN(C)CC1 (centres undefined)	i	0.86	15	124	4	-1.7	95
Cc1ccc(C)n1-c1ccsc1C(=O)CC#N	i	0.9	0	147	-4	.	99
COC(=O)/N=C/c1c(NCc2ccccc2)nc2c(C)cccn2c1=O	i	0.9	.	.	-8	.	125
Cc1cccc(C(=O)N2CCN(c3ccccn3)CC2)c1	i	0.8	43	154	0	-0.5	96
COc1ccccc1Cn1c(=S)[nH]c2cc(C(=O)NCCN3CCOCC3)ccc2c1=O	i	1	50	43	1	-1.3	103
Cc1ccc(CC2CC(=O)N(CCc3ccccc3)C2=O)cc1 (centres undefined)	i	1	.	.	-3	.	104
O=C(COc1cccc2cccnc12)N/N=C/c1ccccc1O	i	1	.	.	.	.	94

Entries of single compounds as entered above. Values in the order: HSV replic up, HSV replic up primary fold, INS promoter inh, INS promoter inh cell count, PKD1 kinase inh, GALR2 agonist, RGS16-Gao HTS
Shown for O=C(c1ccccc1)n1ccc(-c2cccs2)n1 → i, 1.1, ., ., ., ., 92
Shown for O=C(CSc1ccc2nnc(-c3ccc(F)cc3)n2n1)NCc1ccco1 → i, 0.7, 44, 105, -3, -1.1, 98
Shown for O=C(Cn1ccc2ccccc2c1=O)NCCC(=O)Nc1cccnc1 → i, 0.98, ., ., 9, -3.1, 98

(further entries)
SMILES	HSV replic up	HSV replic up primary fold	INS promoter inh	INS promoter inh cell count	PKD1 kinase inh	GALR2 agonist	RGS16-Gao HTS
COc1ccc(C2OC(=O)CC2C(=O)N2CCN(c3cc(Cl)ccc3C)CC2)cc1OC (centres undefined)	i	0.91	.	.	12	-1.5	88
CC1CC(C)CN(c2ncnc3c2cnn3C)C1 (centres undefined)	i	0.97	-9	124	-9	.	104
Cc1ccccc1OCC1CNC(=O)O1 (centres undefined)	i	0.94	.	.	-10	.	111
Cc1ccc2cc3c(NC(=O)C(C)C)nn(C)c3nc2c1	i	0.93	6	109	1	-1.4	101
CC(OC(=O)c1oc2ccccc2c1COc1ccccc1)C(=O)NC(N)=O (centres undefined)	i	0.8	.	.	4	.	96
Cc1cccc2cc(C#N)c(NCc3ccccc3)nc12	i	0.96	18	145	-8	.	108
CC(C)(C)CC(=O)N1CCC(c2nc3c(nnn3Cc3c(F)cccc3Cl)c(=O)[nH]2)CC1	i	0.88	.	.	-4	-1.0	100
Cn1c(=O)c2c(nc(OC/C=C/c3ccccc3)n2C)n(C)c1=O	i	0.92	.	.	2	0.1	.
O=S1(=O)NC2CCCCCN2c2ccc(F)cc21 (centres undefined)	i	1	.	.	0	-1.9	109
O=C(NCc1ccc(F)cc1)C1CCN(S(=O)(=O)N2CCCC2)CC1	i	0.92	-14	76	-8	.	109
CCCNC(=O)COc1ccccc1[N+](=O)[O-]	i	0.87	.	.	3	1.5	110
COC(=O)CCC(=O)NC(=S)Nc1c(C)cccc1C	i	1	.	.	8	-1.8	105
CCCc1nnc(NC(=O)c2ccncc2)s1	i	1	20	160	2	-1.5	-1
c1ccc(C2NCCn3cccc32)cc1 (centres undefined)	i	1	-3	74	6	-1.2	99
CC(C)(C)NS(=O)(=O)c1ccc(NC(=O)C(Sc2ccccc2)c2ccccc2)cc1 (centres undefined)	i	0.65	17	164	-2	-2.0	98

An excerpt from above in order of count of non-hydrogen atoms, rising.
SMILES	HSV replic up	HSV replic up primary fold	INS promoter inh	INS promoter inh cell count	PKD1 kinase inh	GALR2 agonist	RGS16-Gao HTS
CNC(=O)C1CC(=O)N(c2ccc(F)c(Cl)c2)C1 (centres undefined)	i	0.99	0	77	-4	-1.3	106
COc1cc(OC)cc(C(=O)NCCNC(=O)c2ccccc2)c1	i	0.85	14	83	-9	-1.9	103
CC(C)(C)OC(=O)NCC12C=CC(O1)C1C(=O)N(Cc3ccccc3)C(=O)C12 (centres undefined)	i	1.1	-9	73	-2	-3.3	94

The list goes on:
SMILES	HSV replic up	HSV replic up primary fold	INS promoter inh	INS promoter inh cell count	PKD1 kinase inh	GALR2 agonist	RGS16-Gao HTS
C[N+](C)(C)C/C=C1/COCO1	i	0.79	.	.	1	-2.0	106
CC(=O)OC1CSC2c3ccccc3C(=O)N2Cc2sccc21 (centres undefined)	i	1	.	.	-4	.	97
COc1ccc(CCNS(=O)(=O)c2ccc3c(c2)n(C)c(=O)c(=O)n3C)cc1OC	i	0.9	.	.	2	-5.5	97
O=C1NNC(c2ccccc2)=N/C1=C\c1ccc(Cl)cc1	i	1.2	.	.	.	.	106
O=C(COC(=O)c1ccc(NS(=O)(=O)c2ccc3c(c2)OCCO3)cc1)NC1CC1	i	1	92*	91*	-5	0.2	96
COc1ccc(Cc2ccc(OC)c(N)c2)cc1N	i	1.2	-4	93	-7	-0.7	92
CCc1c(C)sc(NC(=O)c2cc(C)no2)c1C#N	i	0.93	.	.	1	-3.0	103
Cc1ccc(C(=O)Nc2cc3c(cc2Cl)OCCCO3)cc1	i	0.9	.	.	-1	-2.0	87
Oc1ccc(O)c(-c2cnns2)c1	i	0.78	35	110	-2	-4.5	102
O=C(OCC(=O)c1ccc(Cl)s1)c1ccccn1	i	1.1	0	101	1	-1.3	103
O=C(NC(=S)N(CCO)Cc1ccccc1)c1ccc(S(=O)(=O)N2CCCC2)cc1	i	0.95	40	124	3	.	105
COCCCNC(=O)CN1C(=O)/C(=C/c2ccccc2C)Sc2ccccc21	i	0.96	20	114	-4	.	100
O=C(Nc1ccc2c(c1)OCO2)C1(S(=O)(=O)c2ccc(Cl)cc2)CC1	i	1.1	64	140	7	-2.2	96
O=C(c1ccc(Cn2c(=O)[nH]c3ccccc3c2=O)cc1)N1CCN(c2ccccc2)CC1	.	.	-91	81	0	-0.5	109
COc1c(C)cccc1C(=O)NC(=S)Nc1ccc2c(c1)Cc1ccccc1-2	.	.	-46	89	-1	-2.8	101
CCN(CC)C(=O)Oc1ccc2ccccc2c1Br	i	0.95	-7	107	-1	.	101
O=C(NCc1ccc(F)cc1)C1CCCN(c2nc3ccsc3c(=O)s2)C1 (centres undefined)	i	0.92	.	.	0	.	95
COc1ccccc1NC(=O)NC(N)=O	i	0.82	-10	78	2	-1.7	102
CN(C1CCCCC1)S(=O)(=O)c1ccc2c(c1)c(=O)c(C(=O)N1CCc3ccccc3C1)cn2C	i	1.1	-9	104	0	-2.1	99
Cc1scc(C(=O)O)c1-c1c(C(=O)O)csc1C	i	0.99	21	39	-13	-2.6	92
C=CCn1c(=N)n(CC(=O)c2ccc(OC)cc2)c2ccccc21	i	0.8	.	.	.	.	104
CCCOc1ccc(-c2nc(-c3ccc(N)cc3)cs2)cc1	i	0.87	.	.	.	.	102
CCOC(=O)c1c(NC(=O)COC(=O)c2ccccn2)sc2c1CCC2	i	0.96	-38	83	-15	0.5	52
C=CCn1c(=O)c2ccccc2n2c(SCC(=O)Nc3sc(C)c(CC)c3C(=O)OCC)nnc12	i	0.91	-7	112	-8	-0.7	108
CC(C)(C)NC(=O)Cn1c(SCC(=O)Nc2nccs2)nc2ccccc21	i	0.91	38	151	1	-0.2	141
N#Cc1c(N)oc(-c2ccc3c(c2)OCO3)c1-c1ccc2c(c1)OCO2	i	1.1	-14	100	9	1.1	105
Cn1c(SCc2ccccc2)nnc1-c1cnccn1	i	1.2	-26	57	-5	-4.0	110

Screens deposited in PubChem by several laboratories.
